GIV-Gai inh – blocks GIV peptide binding to rat Galpha-i3. P08753. Galpha-i3/FITC-GIV peptide fluorescence polarization, 90 min; hits give low values; scaled: aluminum fluoride 0%, vehicle 100%. percent of control (FP), % (no concentration beside the values). 0.42% of 210,000 active;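 active = replicate mean at 85% of control or lower, very high polarization wells dropped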;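 also: wells of about 15 µL received 100 nL stock; the first replicate is given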
Target sequence (P08753 whole entry, looked up): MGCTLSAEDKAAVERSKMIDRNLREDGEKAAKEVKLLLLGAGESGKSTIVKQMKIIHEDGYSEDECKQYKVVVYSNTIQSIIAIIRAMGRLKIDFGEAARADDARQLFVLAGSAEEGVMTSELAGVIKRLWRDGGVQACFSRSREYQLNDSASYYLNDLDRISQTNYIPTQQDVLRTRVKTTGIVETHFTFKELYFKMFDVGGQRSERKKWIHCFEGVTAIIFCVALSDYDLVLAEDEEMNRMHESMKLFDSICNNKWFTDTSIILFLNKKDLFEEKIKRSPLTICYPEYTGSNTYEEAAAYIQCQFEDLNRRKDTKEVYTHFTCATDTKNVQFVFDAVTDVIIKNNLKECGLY
Numbers without * were called inactive.

SMILES	GIV-Gai inh
CC(C)c1ccc(NC(=O)NC2COc3ccccc3C2)cc1 (configuration not stated)	98.2
Cc1ccc(-c2nc(CN3CCCC(C(=O)NCc4ccccn4)C3)no2)cc1 (configuration not stated)	106.9
CCOC(=O)c1cc2c(c(CSc3nc4sc(C(=O)OCC)c(C)c4c(=O)n3CC3CCCO3)c1)OCOC2 (configuration not stated)	108.6
Cc1ccc(S(=O)(=O)Nc2cc3c4c(oc3c3ccccc23)CCCC4)cc1	105.1
Cc1ccc(NS(=O)(=O)c2ccc3c(c2)c(=O)n(CCC(=O)N2CCCC2)c(=O)n3C)nc1	106.8
Cc1cccc(N2CCN(S(=O)(=O)c3ccc4[nH]c(=O)ccc4c3)CC2C)c1 (configuration not stated)	97.1
CCc1ccc(N2C(=O)C3C(c4cccc(Cl)c4)OC4(C(=O)c5ccccc5C4=O)C3C2=O)cc1 (configuration not stated)	102.1
Cc1cc(C)c2c(n1)sc1c2nnn2c3ccccc3nc12	117.5
CCc1onc(C)c1C1CCCN1Cc1ccccc1Br (configuration not stated)	114.1
CCOC(=O)C1=C(N)OC2=C(C(=O)CC(C)(C)C2)C1c1cc(OC)c(OC)c(OC)c1 (configuration not stated)	116.1
N#Cc1c(N)nc2cccc3c2c1-c1ccccc1C3=O	102.6
CCOC(=O)C1CCCN(C(=O)c2ccc3c(c2)[nH]c(=S)n2c4ccccc4nc32)C1 (configuration not stated)	103.4
Cc1nn(C)c(C)c1S(=O)(=O)N1CCc2c(c(-c3nc(-c4ccccc4)no3)nn2C)C1	96.9
O=C1N(CN2CCC(Cc3ccccc3)CC2)c2ccccc2C12OCCO2	115.1
Oc1c(Cl)cc(Cl)cc1C1N(Cc2ccc(Cl)cc2)CCN1Cc1ccc(Cl)cc1	104.2
CCSCCOC(=O)C1=C(C)NC2=C(C(=O)CC(C)(C)C2)C1c1ccc(OC)c(OC)c1OC (configuration not stated)	116.0
COc1ccc(NC(=O)c2sc3nc(-c4cccs4)cc(C(F)(F)F)c3c2N)cc1	75.0*
O=C(Cn1c(=O)ccc2cc(S(=O)(=O)N3CCCC3)ccc21)N1CCc2ccccc2C1	99.9
Cc1ccccc1N1C(=O)/C(=C/c2ccc([N+](=O)[O-])cc2)C=C1c1ccccc1	111.7
CS(=O)(=O)c1ccc(N2CC(c3nnc(NC(=O)C4CC4)o3)CC2=O)cc1 (configuration not stated)	96.9

Reprinted at random: two compounds from above, in no set order.
SMILES	GIV-Gai inh
O=C(Cn1c(=O)ccc2cc(S(=O)(=O)N3CCCC3)ccc21)N1CCc2ccccc2C1	99.9
Cc1ccc(NS(=O)(=O)c2ccc3c(c2)c(=O)n(CCC(=O)N2CCCC2)c(=O)n3C)nc1	106.8

(next part)
SMILES	GIV-Gai inh
CCS(=O)(=O)N1CCCN(C(=O)C(C)C)CC1	102.9
N#CC1=C(N)N2C(=C(C#N)C13CCCCC3)SC1CCCCC12O (configuration not stated)	105.5
O=C1c2ccccc2-c2onc3ccc(Nc4ccccc4)c1c23	113.7
CCOC(=O)C1=CN(Cc2ccc(F)cc2)C=C(C(=O)OCC)C1c1ccc(Cl)c([N+](=O)[O-])c1	99.5
COc1ccc(Cl)cc1Nc1ncnc2c1nnn2C	101.7
COC(=O)c1sccc1NC(=O)CN1CCCN(Cc2ccc(OC)cc2)S1(=O)=O	109.1
COc1cc(NC(=O)N2CCCC2c2c(C)noc2C)cc(OC)c1OC (configuration not stated)	109.1
COc1cccc(/C=C2\SC(=O)N(CNc3cccc(Br)c3)C2=O)c1	104.2
COc1ccc(CN2CCN(c3ncnc4sc(C)c(C)c34)CC2)c(OC)c1OC	105.3
CCOC(=O)C1=CN(Cc2ccc(Cl)cc2)C=C(C(=O)OCC)C1c1cccc(OC)c1OC	102.9

Brought forward from above: three compounds, then new ones.
SMILES	GIV-Gai inh
COc1cccc(/C=C2\SC(=O)N(CNc3cccc(Br)c3)C2=O)c1	104.2
COc1ccc(CN2CCN(c3ncnc4sc(C)c(C)c34)CC2)c(OC)c1OC	105.3
CCOC(=O)C1=CN(Cc2ccc(Cl)cc2)C=C(C(=O)OCC)C1c1cccc(OC)c1OC	102.9
Cc1nn(-c2cccc(F)c2)c2sc(C(=O)Oc3ccccc3F)cc12	108.4
COc1ccc(C2c3[nH]c4ccccc4c3CCN2C(=O)c2ccc(Cl)c(Cl)c2)cc1 (configuration not stated)	103.8
COc1ccc(C2C3=C(CC(C)(C)CC3=O)Nc3ccc4ccccc4c32)cc1OC (configuration not stated)	101.1
O=C(CCc1nc(-c2ccc(N3CCCC3)cc2)no1)N1CCN(c2ccccn2)CC1	98.4
O=C(Nc1ccc(N2CCN(c3ncccn3)CC2)c(C(=O)O)c1)c1ccc(Br)cc1	105.1
CCCc1cc(C(=O)N2CCCC2c2cc(C(C)C)no2)no1 (configuration not stated)	99.1
O=C(NNc1ccccc1Cl)C(O)(c1cccc(C(F)(F)F)c1)c1cccc(C(F)(F)F)c1	111.9
Cc1nn(-c2nc3ccc(Br)cc3s2)c2c1C(c1ccc(C(=O)O)cc1)CC(=O)N2 (configuration not stated)	101.8
CCCCCCN1C2=NCCN2c2ccccc21	110.1
CC(C)(C)C1CCc2oc3ccc(NS(=O)(=O)c4ccccc4)cc3c2C1 (configuration not stated)	108.9

Part of the list above in another layout.
GIV-Gai inh | molecule
103.8 | COc1ccc(C2c3[nH]c4ccccc4c3CCN2C(=O)c2ccc(Cl)c(Cl)c2)cc1 (configuration not stated)
101.8 | Cc1nn(-c2nc3ccc(Br)cc3s2)c2c1C(c1ccc(C(=O)O)cc1)CC(=O)N2 (configuration not stated)
98.4 | O=C(CCc1nc(-c2ccc(N3CCCC3)cc2)no1)N1CCN(c2ccccn2)CC1

(next part)
SMILES	GIV-Gai inh
Cc1ccc(Cc2nc(CCNS(=O)(=O)c3ccc(C)c(C)c3)n[nH]2)cc1	104.4
CCS(=O)(=O)c1nc2ccc(NS(=O)(=O)c3ccc(F)cc3Cl)cc2s1	111.2
Cc1nnc(-c2coc(S(=O)(=O)N3CCN(C)CC3)c2)o1	108.0
Cc1c(C(=O)N2CCCCC2C)sc2ncn(C)c(=O)c12 (configuration not stated)	106.3
O=C1CC(c2ccccc2I)c2ccc3ccccc3c2N1 (configuration not stated)	111.5
Cc1nc(-c2cc(S(=O)(=O)N(C)Cc3ccccc3)c(C)s2)sc1C	101.0
Cn1ncc2c(Nc3cccc(Cl)c3)ncnc21	99.1
Cc1cc2c(cc1S(=O)(=O)N1CCCC1C(=O)NCc1ccccc1Cl)OCC(=O)N2 (configuration not stated)	96.4
Cc1ccccc1NC(=O)C(C)(C)N(Cc1ccco1)C(=O)C(C)Oc1cc(Cl)c(Cl)cc1Cl (configuration not stated)	104.1
CCc1nc(OCC(=O)N2CCCC2)c2c(-c3ccccc3)noc2n1	103.4
Cc1cc2c(cc1S(=O)(=O)N1CCCC1)OCC(=O)N2Cc1noc(C2CCC2)n1	106.2
Cc1c(C(=O)N2CCC(C(N)=O)(N3CCCCC3)CC2)sc2ncn(CC(=O)N3CCC(C)CC3)c(=O)c12	105.7
CNC(=O)c1cn(-c2ccc(SCC(=O)Nc3ccc4c(c3)OCCO4)nn2)cn1	99.9
O=C(Cn1c(=O)nc2c3c4c(sc3ncn21)CCCC4)NC1CCCCC1	102.3
O=C(NC1CCN(Cc2ccccc2)CC1)C1CCCN(c2ncc(-c3ccccc3)cn2)C1 (configuration not stated)	109.3
Cc1ccc(S(=O)(=O)Nc2cccc(C(=O)N3CCCC(C(=O)NCCC(C)C)C3)c2)c(C)c1 (configuration not stated)	108.6
CC(C)OC(=O)CSc1nnc2c(S(=O)(=O)N3CCN(c4ccc(F)cc4)CC3)cccn12	96.8
CN(C)c1ccc(C2NC(=O)c3c(sc4c3CCCC4)N2)cc1 (configuration not stated)	110.7
c1ccc(Cn2c3ccccc3c3nc4ccccc4nc32)cc1	108.9
Cc1cccc(NC(=O)/C(=C\c2ccc3c(c2)OCO3)NC(=O)c2ccccc2Br)c1	106.9
O=S(=O)(c1cccc(-c2nc(-c3ccccc3)no2)c1)N1CCCc2ccccc21	98.4
CCOC(=O)C1=C(O)/C(=C/c2ccc(N(C)C)cc2)SC1=Nc1ccccc1	267.3
CCCCN(CC)c1ccc2nnc(CCc3nc(-c4cccc(C)c4)no3)n2n1	103.0
COc1cccc(Oc2ccnc(-c3cccc(C(=O)NCc4ccc5c(c4)OCO5)c3)n2)c1	107.8
N#CCCN1CCN(C2=NC(=O)/C(=C\c3ccc(Cl)cc3)S2)CC1	104.6
CCc1nc(CN2C(=O)COc3cc(S(=O)(=O)N(CC)Cc4ccccc4)c(C)cc32)no1	104.0
Cc1ccc(CSc2nnc3c(S(=O)(=O)N4CCN(c5ccc(F)cc5)CC4)cccn23)cc1	98.2
COc1ccc2c(c1)c(=O)c1ccccc1n2CC(=O)Nc1cccc(Cl)c1	123.4
CCCCNc1nc(SCC(=O)NC(C)CC)nc2ccccc12 (configuration not stated)	111.8
CCC(C)N1C(=O)N(c2ccc(Cl)c(Cl)c2)C(n2oc(=O)n(-c3ccc(Cl)c(Cl)c3)c2=O)C1(C)C (configuration not stated)	103.6
CCOc1cccc(CN2CCCC2c2c(C)noc2CC)c1O (configuration not stated)	103.0
CN(C)c1ccc(C2Nc3ccc4ncccc4c3C3=C2C(=O)CC(C)(C)C3)cc1 (configuration not stated)	113.3
Clc1ccc2c(c1)C(c1ccccc1)OC(c1ccc(Br)cc1)N2 (configuration not stated)	100.7
COCCN(CCOC)c1nc(-c2ccc([N+](=O)[O-])cc2)nc2ccccc12	104.1
COc1ccc(C2(CNC(=O)C(=O)NC(C)CCc3ccccc3)CCCC2)cc1OC (configuration not stated)	108.9
Cc1ccc(C2/C(=C(\O)c3ccc(F)cc3)C(=O)C(=O)N2c2nnc(C)s2)cc1 (configuration not stated)	121.5
O=C(CSc1nnc(-c2ccncc2)n1Cc1ccco1)c1ccc(Br)cc1	101.3
O=C(CNS(=O)(=O)c1cc(-c2noc(C3CCC3)n2)cs1)N1CCCCC1	105.6
COc1ccccc1Cc1nc2ccccc2nc1SCC(=O)NCC1CCCO1 (configuration not stated)	101.0
Cc1ccccc1N=C1c2ccccc2-c2ncccc21	111.4
Cc1ccc(-c2ncc(C(=O)N3CC=C(c4ccccc4)CC3)c(-c3ccncc3)n2)cc1	109.4
CCCc1[nH]n(-c2ccc(F)cc2)c(=O)c1C=Nc1cccc2ccccc12	105.7
O=C(c1cc2cc(Br)ccc2oc1=O)N1CCN(Cc2ccccc2)CC1	104.9
O=S(=O)(c1ccc(Cl)s1)N(Cc1ccco1)CC1CCCO1 (configuration not stated)	102.9
O=c1/c(=C/c2ccccc2Cl)sc2nc(-c3ccccc3)nn12	103.4
CCc1onc(C)c1C1CCCN1Cc1cccc(Cl)c1 (configuration not stated)	104.3
CCOC(=O)C1=CN(Cc2ccc(Cl)cc2)C=C(C(=O)OCC)C1c1cc(Br)c(O)c(OC)c1	101.8
COc1ccc(C2N3CCc4ccccc4C3CN2S(=O)(=O)c2ccccc2)cc1 (configuration not stated)	108.1
CC(C)c1nnc2ccc(N3CCOCC3)nn12	104.3
Cn1c(N2CCCC(C(=O)NC3CC3)C2)cc(=O)n(C)c1=O (configuration not stated)	111.0

(more compounds)
SMILES	GIV-Gai inh
CCOc1ccc(NC(=O)N(C)Cc2nc3cc(C(=O)N(C)C)ccc3n2CC)cc1	103.2
Cc1cc(N2CCOCC2)n2nc(CN3CCc4ccccc4C3)nc2n1	98.7
Oc1ccccc1CN1CCN(Cc2ccccc2O)C1c1c(O)c(Br)cc2oc3c(c12)CCCC3	112.5
Cc1cccc(S(=O)(=O)N2CCC(c3noc(-c4ccccc4)n3)CC2)c1	106.7
COC(=O)c1ccc(NCN2C(=O)/C(=C\c3cc(OC)c(OC)c(OC)c3)SC2=S)cc1	114.0
N#Cc1c(-c2ccc(F)cc2)cc(-c2ccccc2)nc1SCC(=O)NC1CC1	101.2
CC1(C)SC(=S)N(/N=C/C=C/c2ccc([N+](=O)[O-])o2)C1N(O)C(=O)Nc1cccc(Cl)c1 (configuration not stated)	104.6
N#CC1=CN(c2ccc(C#N)cc2)c2cc(Cl)ccc2S1(=O)=O	101.8
Cc1ccc2c(c1)NC(C)(C)c1sn(-c3ccc(C)c(Cl)c3)c(=S)c1-2	105.8
CCC(C)NC(=O)N1CCC(c2nc(C)cs2)CC1 (configuration not stated)	101.3

3 of the compounds above, as a markdown table:
| SMILES | GIV-Gai inh |
| --- | --- |
| CCCCNc1nc(SCC(=O)NC(C)CC)nc2ccccc12 (configuration not stated) | 111.8 |
| CCC(C)N1C(=O)N(c2ccc(Cl)c(Cl)c2)C(n2oc(=O)n(-c3ccc(Cl)c(Cl)c3)c2=O)C1(C)C (configuration not stated) | 103.6 |
| CCOc1cccc(CN2CCCC2c2c(C)noc2CC)c1O (configuration not stated) | 103.0 |

The listing continues:
SMILES	GIV-Gai inh
Cc1ccc(C2CC(=O)Nc3c2cnn3-c2nc3ccccc3s2)cc1C (configuration not stated)	100.1
COC(=O)c1ccccc1OCCCn1c(-c2ccc(Br)cc2)nc2ccccc2c1=O	112.2
O=C(C1CCN(S(=O)(=O)c2cccc3nonc23)CC1)N1CCc2ccccc2C1	105.3
O=C(NCc1cccnc1)C1CCN(Cc2noc(-c3ccc(F)cc3)n2)CC1	102.2
Cc1cc(N2CCCC2)nc(Nc2ccc(NC(=O)Nc3ccccc3)cc2)n1	107.4
Cc1ccc(NC(=O)Cn2cc(-c3nnc(CN4CCCCC4)o3)c3ccccc32)cc1Cl	104.4
Fc1ccc(C2N(Cc3ccccc3)CCN2Cc2ccccc2)cc1	116.4
O=C(CSc1nnc2ccc(C(=O)NCc3ccccc3)cn12)Nc1ccccc1Br	95.4
O=S(=O)(c1ccc2c(c1)Cc1cc(S(=O)(=O)N(CCO)CCO)ccc1-2)N(CCO)CCO	101.7
CCN(CC)c1ncnc2sc(C(=O)N3CCN(c4ccccc4F)CC3)c(C)c12	102.6
O=c1c(C=NCc2ccccc2)c(O)n(-c2ccccc2)c(=S)n1-c1ccccc1	116.7
CS(=O)(=O)NC1CCN(C(=O)C2CC2)C1 (configuration not stated)	99.9
O=C(Nc1ccc(N2CCCN(c3ccc(Cl)nn3)CC2)c(C(=O)O)c1)c1ccc(F)cc1	108.2
CC(=O)C12c3ccccc3C(c3ccccc31)C1C(=O)N(c3ccc(C(=O)O)cc3)C(=O)C12 (configuration not stated)	108.9
Cc1cc(N(C)C)nc(N2CCN(S(=O)(=O)c3ccc(Cl)cc3)CC2)n1	97.1

Only part of the results is shown. The share of hits here may be higher or lower than overall.
